Source: PubChem (National Center for Advancing Translational Sciences (NCATS))
MARV entry inh = blocks Marburg virus binding to or entry into cells. 300,000 tested, 1.8% active. Potency, µM (series often up to 37.8 µM), inactives show top-dose activity change, negative = inhibition, actives largely listed as inhibitors. Marburg virus pseudotyped entry inhibition, cell reporter; control for the full effect not named in the record; about a third of the inactives were read at about 46 µM. AID 540276; active = well fitted inhibition curve with a large enough effect; inconclusive = small, poorly fitted or top-dose-only effect, or effect the other way; inactive = flat fitted curve, though single readings scatter; tested in HEK293 cells; about a fifth of its hits are not listed in these tables; also: % is scaled to controls: 0 for no effect and ±100 for the full control effect; luciferase read-out
Cruzain Triton = blocks cruzain activity in presence of Triton detergent; P25779; purified cruzain, Z-FR-AMC fluorescence, 0.01% Triton; Potency, µM, for inactives: max response, negative = inhibition, actives largely listed as inhibitors; 200,000 tested, 0.43% active;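 also: plate controls were neutral wells for no effect and buffer without enzyme for full effect; nearly all actives have a fitted effect of over 40% in size; top concentration of the series not given in the record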
Target sequence (P25779 123-467 limits assumed): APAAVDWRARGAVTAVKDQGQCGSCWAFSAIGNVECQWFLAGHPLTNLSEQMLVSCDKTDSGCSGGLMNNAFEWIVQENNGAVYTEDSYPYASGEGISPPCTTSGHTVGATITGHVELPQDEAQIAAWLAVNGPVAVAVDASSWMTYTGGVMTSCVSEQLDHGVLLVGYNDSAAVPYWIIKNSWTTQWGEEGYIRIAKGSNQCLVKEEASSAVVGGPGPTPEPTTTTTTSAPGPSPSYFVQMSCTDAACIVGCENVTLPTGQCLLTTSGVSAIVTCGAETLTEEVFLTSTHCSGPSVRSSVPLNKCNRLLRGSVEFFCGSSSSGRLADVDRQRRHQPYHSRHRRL
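Steps: dispense cruzain (1.5 nM final) in acetate buffer pH 5.5 with DTT and 0.01% Triton X-100; pin-transfer compounds; incubate 15 min RT; add Z-FR-AMC (2 uM final); read fluorescence every 30 s, using the 60 s intensity change.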
StopGo reporter = lowers the luciferase signal of an FMDV 2A StopGo reporter. human cells with a luciferase reporter of 2A StopGo recoding; control for the full effect not named in the record. Potency, µM (series often up to 57.9 µM), for inactives: top-dose signal change, negative = less light. 410,000 tested, 1.2% active; active = well fitted falling curve with a large enough effect; inconclusive = small, poorly fitted or top-dose-only effect; inactive = no such curve, though single readings can be large or run the other way; tested in HEK293T cells; also: % is scaled to controls: 0 for no effect and ±100 for the full control effect; nearly all actives have a fitted effect of over 45% in size; luciferase light after 4 h
Cruzain inh noDet = cruzain (T. cruzi) inhibition without detergent. P25779. purified cruzain, Z-FR-AMC fluorescence, no detergent. Potency, µM, inactives show max response, negative = inhibition, usual class: inhibitors. 200,000 tested, 2.3% active. AID 1476;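 also: plate controls were enzyme without inhibitor for no effect and buffer without enzyme for full effect; nearly all actives have a fitted effect of over 40% in size; top concentration of the series not given in the record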
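Detergent-free condition (0.00005% Triton X-100) in acetate buffer pH 5.5 with DTT. 1.5 nM enzyme and compound were pre-mixed 15 min, then 2 uM Z-FR-AMC substrate added; reaction progress from fluorescence change between first and third reads (60 s).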
NS1 function inh = blocks influenza NS1 protein function; S. cerevisiae slowed by influenza A NS1, growth recovery by OD600; Potency, µM (highest dose often 46.1 µM), for inactives: at the highest dose activity, positive = more growth; 270,000 tested, 0.4% active; active means well fitted rising curve with a large enough effect; inconclusive means small, poorly fitted or top-dose-only effect; inactive means no such curve, though single readings can be large or run the other way; also: nearly all actives have a fitted effect of over 50% in size
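Growth recovery, yeast-based: influenza A NS1 expressed in S. cerevisiae causes slow growth, and suppressors are detected by OD600. The parent strain without NS1 is used as positive control.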
SARS PLpro yeast = inhibitors of SARS-CoV papain-like protease in yeast; Potency, µM (highest dose often 32.9 µM), without a hit: at the highest dose activity, positive = growth rescue; 330,000 tested, 0.19% active; S. cerevisiae expressing SARS-CoV PLpro, growth rescue; control for the full effect not named in the record; active means well fitted rising curve with a large enough effect; inconclusive means small, poorly fitted or top-dose-only effect; inactive means no such curve, though single readings can be large or run the other way; also: 0% is about no effect; nearly all actives have a fitted effect of over 55% in size; growth read by luminescence after 48 h
RE007 growth inh = less growth of the S. pombe RE007 Vpr strain | S. pombe RE007 Vpr strain, BacTiter-Glo ATP luminescence, 24 h; control for the full effect not named in the record | Potency, µM (doses to about 92.2 µM), for the others: at the top dose activity change, negative = less growth | 360,000 tested, 0.21% active; active = well fitted falling curve with a large enough effect; inconclusive = small, poorly fitted or top-dose-only effect; inactive = no such curve, though single readings can be large or run the other way;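 also: % is scaled to controls: 0 for no effect and ±100 for the full control effect; nearly all actives have a fitted effect of over 50% in size; the assay follows cell death caused by Vpr and the record does not say whether a fall means rescue or toxicity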
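Fission yeast RE007 carrying one integrated HIV-1 vpr copy, seeded at OD 0.01 in PMG+AL medium with 23 nL pinned compound. Grown 24 h at 30 degrees; viability read by BacTiter-Glo luminescence after 5 min.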
Lassa entry inh = Lassa virus entry inhibition. 300,000 tested, 1.2% active. Potency, µM (doses to about 37.9 µM), without a hit: top-dose activity change, negative = inhibition, usual class: inhibitors. Lassa virus pseudotype entry inhibition, cell reporter; control for the full effect not named in the record; active means well fitted inhibition curve with a large enough effect; inconclusive means small, poorly fitted or top-dose-only effect, or effect the other way; inactive means flat fitted curve, though single readings scatter; tested in HEK293 cells; also: % is scaled to controls: 0 for no effect and ±100 for the full control effect; nearly all actives have a fitted effect of over 50% in size; luciferase read-out
* marks the source's active call; other numbers are inactive results; ? = inconclusive; · = no result given; & = joins results of further samples; [ ] = dose if it differs, or a comment. Unless noted, calls follow the shape of the dose curve; as a rule, active = well fitted curve in the direction sought with a large enough effect; inconclusive = small, poorly fitted or top-dose-only effect, or another doubt; inactive = no such curve, though single readings can be large; an effect the other way counts as inactive or inconclusive. Potency is read from the fitted curve at half-maximal effect.

SMILES	MARV entry inh	Cruzain Triton	StopGo reporter	Cruzain inh noDet	NS1 function inh	SARS PLpro yeast	RE007 growth inh	Lassa entry inh
O=C(Nc1cccc(Cl)c1)c1ccncc1	7.1%	4.0%	0.6%	-9.6%	-30.4%	-4.0%	-16.1%	5.5%
Cc1nn(Cc2ccc(Cl)cc2)c(C)c1NC(=O)c1noc2c1CCc1ccccc1-2	17.2%[46.1 µM]	-4.0%&-0.2%	39.8µM*	?	-1.2%	-5.6%	-6.4%	-15.4%[46.1 µM]
Cc1nc(C(C)N(C)Cc2c(C(=O)N3CCCCC3)nc3c(C)cccn23)c(C)s1 (stereo not given)	-14.4%[46.1 µM]	·	-14.5%	·	-2.1%	-0.6%	-18.5%	5.8%[46.1 µM]
COc1ccc(C)cc1NCc1cc(=O)oc2cc(-c3ccccc3)c(O)cc12	?	-1.5%	2.8%	31.6µM*	19.5%	-0.2%	4.7%	2.5%
O=C1COc2ccc(S(=O)(=O)NCCc3ccccc3)cc2N1	0.3%[46.1 µM]	·	47.5%[activator]	·	8.4%	-1.3%	21.4%	-14.8%[46.1 µM]
CCOC(=O)c1c(C)c(C(=O)NC(C)COC)c(C)n1CC (stereo not given)	-2.3%	-4.4%	-15.2%	-1.6%	-14.9%	-2.5%	-6.5%	-3.8%
COc1ccc(NC(=S)NCCC(c2ccccc2)c2ccccc2)c(OC)c1	?	-7.1%	-14.5%	-28.1%	11.2µM*	-1.7%	7.4%	?
CN(C1CCCCC1)S(=O)(=O)c1ccc2c(c1)c(=O)c(C(=O)NCc1ccc(F)cc1)cn2C	6.1%[46.1 µM]	-1.4%	-12.9%	-11.2%	·	·	·	6.9%[46.1 µM]
Cc1ccoc1C(=O)NCc1occc1C(=O)O	4.0%	-1.0%	-5.1%	-11.1%	-2.1%	?	-7.4%	2.3%
O=C(CNC(=O)OCc1ccccc1)NCC(=O)N1CCCC1C(=O)OCc1ccccc1 (stereo not given)	-1.6%	5.9%	-12.4%	7.8%	1.4%	0.2%	-10.9%	2.9%
O=C(NCC1CCCO1)c1cccc(Oc2c(Cl)cccc2[N+](=O)[O-])c1 (stereo not given)	-18.7%	·	-19.0%	·	-9.5%	10.8%	6.2%	-27.4%
CCN(CCN1CCCC1)C(=O)c1cc(COc2ccccc2SC)on1	?	·	10.9%	·	22.6%	1.5%	-10.4%	15.7%
O=C1Nc2ccc(Cl)cc2C(=O)C1(F)c1ccccc1 (stereo not given)	1.3%	·	21.0%	·	-3.8%	-0.1%	4.9%	-0.7%
c1ccc(N2CCCCC2)c(NC2=NCCC2)c1	-0.1%	2.6%	0.9%	4.7%	-6.7%	-0.9%	-21.1%	3.8%
NS(=O)(=O)c1ccc(CNC(=O)NC23CC4CC(CC(C4)C2)C3)cc1	15.7%	4.6%	-10.3%	1.6%	-1.1%	1.6%	-11.5%	13.0%
COCc1nnc(NC(=O)c2ccc(S(=O)(=O)N3CCCc4ccccc43)cc2)o1	?	·	-23.9%	·	·	16.6%	16.2%	?
Cn1c(C(=O)N2CCCC(C(=O)N3CCN(C(=O)c4ccco4)CC3)C2)cc2sccc21 (stereo not given)	·	0.5%	?	-0.4%	-7.7%	3.7%	0.0%	·
Cc1ccc(NC(=O)COC(=O)CCc2nc3ccccc3c(=O)[nH]2)c(Br)c1	6.3%	·	13.6%	·	·	-1.2%	3.3%	6.6%
N#CCSc1n[nH]c2nc3c(c(=O)n12)C1(CCCCC1)Cc1ccccc1-3	?	·	?	·	7.3%	-1.4%	0.2%	-20.4%
CCOP(=O)(OCC)c1nc(-c2ccc(Cl)cc2)oc1NCc1ccccc1	?	·	-10.8%	·	·	-3.6%	1.8%	?
O=C1C2C3C=CC([C@@H]2C(=O)N1C1CCCCC1)[C@H]1C(=O)N(C2CCCCC2)C(=O)C31 (stereo not given in full)	-11.2%[46.1 µM]	-0.7%	0.0%	11.1%	-2.9%	-3.0%	20.9%	?
CCOc1ccc(N2C(=O)C3ON(C)C(c4ccc([N+](=O)[O-])cc4)C3C2=O)cc1 (stereo not given)	·	·	-18.2%	·	-2.9%	0.3%	7.2%	·
Cc1[nH]c2ccc(C(=O)N3CCN(c4ccccn4)CC3)cc2c1C	·	·	-5.0%	·	-2.4%	-1.2%	-11.5%	·
CC(C)(C)[C@@H]1C=C(C(=O)Nc2ccccc2)O[C@H](OCc2ccc(CO)cc2)C1	·	·	-7.4%	·	-12.3%	0.7%	-0.9%	·
O=C(Nc1cccc(NC(=O)c2ccccc2Cl)c1)c1ccc(F)cc1	·	·	-0.3%	·	-13.0%	-5.8%	14.8%	·

Among those listed so far, six have four or more nitrogen atoms:
SMILES	MARV entry inh	Cruzain Triton	StopGo reporter	Cruzain inh noDet	NS1 function inh	SARS PLpro yeast	RE007 growth inh	Lassa entry inh
Cc1nn(Cc2ccc(Cl)cc2)c(C)c1NC(=O)c1noc2c1CCc1ccccc1-2	17.2%[46.1 µM]	-4.0%&-0.2%	39.8µM*	?	-1.2%	-5.6%	-6.4%	-15.4%[46.1 µM]
Cc1nc(C(C)N(C)Cc2c(C(=O)N3CCCCC3)nc3c(C)cccn23)c(C)s1 (stereo not given)	-14.4%[46.1 µM]	·	-14.5%	·	-2.1%	-0.6%	-18.5%	5.8%[46.1 µM]
COCc1nnc(NC(=O)c2ccc(S(=O)(=O)N3CCCc4ccccc43)cc2)o1	?	·	-23.9%	·	·	16.6%	16.2%	?
Cn1c(C(=O)N2CCCC(C(=O)N3CCN(C(=O)c4ccco4)CC3)C2)cc2sccc21 (stereo not given)	·	0.5%	?	-0.4%	-7.7%	3.7%	0.0%	·
N#CCSc1n[nH]c2nc3c(c(=O)n12)C1(CCCCC1)Cc1ccccc1-3	?	·	?	·	7.3%	-1.4%	0.2%	-20.4%
Cc1[nH]c2ccc(C(=O)N3CCN(c4ccccn4)CC3)cc2c1C	·	·	-5.0%	·	-2.4%	-1.2%	-11.5%	·

(list continues)
SMILES	MARV entry inh	Cruzain Triton	StopGo reporter	Cruzain inh noDet	NS1 function inh	SARS PLpro yeast	RE007 growth inh	Lassa entry inh
CN(C)S(=O)(=O)c1cccc(C(=O)Nc2n[nH]c(C(F)(F)F)n2)c1	-0.7%[46.1 µM]	·	5.4%	·	3.2%	-3.0%	16.5%	3.9%
O=C1CCN(S(=O)(=O)c2ccccc2)CCN1CCOCc1ccc(C(F)(F)F)cc1	·	·	?	·	9.9%	-0.5%	-2.2%	·
c1ccc(C2CC(c3cccs3)Nc3nnnn32)cc1 (stereo not given)	-10.2%[46.1 µM]	·	9.2%	·	3.5%	-1.3%	-18.1%	1.3%
COc1cccc(NC(=S)Nc2ccc(O)cc2)c1	·	·	43.9%[activator]	·	-1.8%	0.1%	-9.0%	·
Cc1cc(=O)oc2cc(OCC(=O)N(C)C3CCS(=O)(=O)C3)c(Cl)cc12 (stereo not given)	·	·	9.2%	·	-23.7%	0.9%	-1.7%	·
O=C(N/C(=C\c1ccccc1)C(=O)N1CCCCC1)c1ccc(Br)o1	·	·	36.5%[activator]	·	-18.4%	3.5%	-12.2%	·
Clc1ccc(CNc2nnnn2-c2ccccc2)c(Cl)c1	?	-2.7%	13.8%	3.2%	-9.5%	-1.3%	15.8%	1.1%
CC(C)CNC(=O)C1CCN(c2ccc(S(=O)(=O)N3CCOCC3)cc2[N+](=O)[O-])CC1	·	·	-25.4%	·	-7.1%	2.7%	-5.3%	·
O=C(O)CN1C(=O)CSC1=S	1.7%[46.1 µM]	·	-4.6%	·	4.9%	-1.1%	-15.5%	-0.3%[46.1 µM]
Cc1ccc(NC(=O)C2(N(C(=O)Cn3nnnc3N)c3ccc(C)cc3)CCCCC2)cc1	?	-1.8%	21.0%	28.6%	-14.2%	-1.8%	-7.5%	-12.1%
Cn1c(COc2ccc3ccccc3c2)nnc1SCC(N)=O	1.2%	9.7%	4.9%	-4.9%	0.0%	11.7%	-4.8%	-10.1%
COc1cccc(CNc2nc3ccccc3n2C)c1O	?	·	9.4%	·	-13.9%	-3.0%	-7.8%	-8.8%[46.1 µM]
CC(C)c1ccc(/C=N/NC(=O)C(=O)NCCCN2CCOCC2)cc1	-5.8%	-4.3%	-18.5%	-7.5%	8.5%	-3.2%	10.3%	-0.8%
CCN(CC)c1ccc(/C=N/NC(=O)CCC(=O)NCc2ccccc2)c(O)c1	?	-11.1%	13.6%	2.8%	-2.0%	3.98µM*	10.9%	?
CCCn1c(=O)[nH]c(=O)c2c(C(=O)OCC)cc(-c3cccs3)nc21	-11.6%	·	-11.6%	·	·	-0.4%	1.2%	?
Cc1ccc(C(=O)O/N=C(\N)c2cccnc2)cc1[N+](=O)[O-]	6.4%	-0.7%	35.9%[activator]	-4.7%	-8.1%	-6.2%	-4.5%	?
CC1CCN(C(=S)c2cn(Cc3ccc(F)cc3)c3ccccc23)CC1	-21.2%	-1.1%	16.6%	?	4.2%	-5.0%	24.0%	-22.0%
CC(=O)N1N=C(c2ccc(C)o2)CC1c1cccc(F)c1 (stereo not given)	9.0%	·	-9.8%	·	-1.4%	1.1%	17.7%	-18.2%
COc1cc(NC(=O)CSc2nnnn2C2CCCC2)cc(OC)c1	0.3%[46.1 µM]	·	14.5%	·	2.3%	-1.2%	3.1%	-16.7%[46.1 µM]
CN1CCc2c1nc1ccccc1c2N=C1CCCN1Cc1ccccc1	?	-4.0%	-27.7%	-4.4%	-20.0%	-7.0%	-0.5%	?
O=C(CSc1ccc(-c2cccnc2)nn1)Nc1ccc(F)c(F)c1	-27.9%	·	?	·	8.5%	4.9%	5.2%	-25.1%
CN(C)N1C(N)=C(C#N)C(c2ccsc2)C2=C1CC(C)(C)CC2=O (stereo not given)	-25.7%	-1.8%	-24.2%	-2.8%	20.3%	1.6%	·	-17.2%
NC(=O)NC(=O)CSc1ccccc1	13.8%[46.1 µM]	·	15.9%	·	·	-1.5%	2.5%	·
COc1ccc(NC(=O)c2csc(Cc3ccccc3)n2)cc1	?	2.2%	15.8%	7.4%	-9.0%	-29.9%	-13.5%	?
